Screening results from PubChem BioAssay.
CBX7 inh – CBX7 inhibition, primary AlphaScreen | O95931 | actives 1.1% (n = 66,000) | AID 1224903 | normalised signal (fraction of DMSO) (test concentration not listed) | AlphaScreen His6-CBX7 / biotin-H3K27me3 peptide binding; hits give low values; in the data active means normalised signal below about 0.5;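 further: 100 nL library stock added to about 20 µL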
Target sequence (O95931 whole entry, looked up): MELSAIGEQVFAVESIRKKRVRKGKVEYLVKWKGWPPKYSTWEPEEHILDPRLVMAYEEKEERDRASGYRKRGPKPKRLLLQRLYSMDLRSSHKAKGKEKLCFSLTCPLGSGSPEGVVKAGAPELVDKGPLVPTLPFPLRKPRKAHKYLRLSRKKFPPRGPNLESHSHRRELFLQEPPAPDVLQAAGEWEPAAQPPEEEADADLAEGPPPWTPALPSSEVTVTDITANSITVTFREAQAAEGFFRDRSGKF
CBX7 inh z-score – further read-out of CBX7 inh, marked with its call; z-score; measured here: z-score of CBX7 signal; some inactives read as strong as hits; reference of the scale not given here;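 same signal on another scale; lower means less binding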
* hit, by the source's call; & = joins results of further samples.

SMILES | CBX7 inh | CBX7 inh z-score
CC1CCN(S(=O)(=O)c2ccc(NC(=O)c3ccc(C(C)(C)C)cc3)cc2)CC1 | 1.1 | 2
CCCc1cc(=O)[nH]c(SCc2nc(-c3ccccc3)no2)n1 | 0.94 | -0.89
Cc1ccc2nc(-c3ccc(NC(=O)c4c(-c5ccccc5Cl)noc4C)cc3)sc2c1 | 1 | 0.12
CCOC(=O)c1c(NC(=O)c2ccccc2)sc2c1CC(C)CC2 (centres undefined) | 1.7 | 1.7
Cc1ccc(NC(=O)CSc2nccn2-c2ccc(Cl)cc2)c(C)c1 | 0.83 | -1.4
Cc1ccc(CNC(=O)CN(C)S(=O)(=O)c2cccc3cccnc23)cc1 | 0.95 | -0.62
Cc1ccc(CNC(=O)C(=O)Nc2ccccc2C)cc1 | 1 | 0.2
CCOc1ccc(CNC(=O)c2cc(-c3ccc(Cl)s3)nc3ccccc23)cc1 | 1 | 1.6
Cc1ccc2c(c1)C(c1ccc(F)cc1)N(C(=O)c1ccc(-c3ccccc3)cc1)CC(=O)N2 (centres undefined) | 0.58 | -4
CCCCOc1ccc(C(=O)Nc2c3c(nn2-c2ccc(F)cc2)CSC3)cc1 | 0.98 | -0.3
COc1ccc(CN(C(=O)c2ccc(OCC(C)C)cc2)C2CCS(=O)(=O)C2)cc1OC (centres undefined) | 0.98 | -0.3
COc1ccc(-n2c(C)nc3ncnc(-c4ccccc4)c32)cc1 | 1 | 0.7
CN1CCN(c2nc(-c3ccccc3Cl)nc3ccccc23)CC1 | 0.97 | -0.86
Cc1ccc(NC(=O)CCc2nnc3ccc(NCc4ccc5c(c4)OCO5)nn23)cc1 | 0.94 | -1.7
CCOCCCNC(=O)c1c[nH]c2ccc(S(=O)(=O)Nc3ccc(F)cc3F)cc2c1=O | 0.92 | -1
Cc1ccc(NC(=O)C2(S(=O)(=O)c3ccc(Cl)cc3)CC2)c(Br)c1 | 1.2 | 5.7
Cc1ccc(CNC(=O)c2cc3oc(C)cc3n2Cc2ccc(Cl)cc2)cc1 | 0.95 | -1.5
CCC(=O)N1c2ccc(S(=O)(=O)NCCCOC)cc2CC1C (centres undefined) | 1.1 | 0.4
CC1CC(C)CN(CCCNC(=O)c2ccc3c(c2)NC(=O)c2ccccc2S3)C1 (centres undefined) | 1.1 | 0.55
Cc1cccc2sc(NC(=O)C3CCCN3S(=O)(=O)c3cccc4cccnc34)nc12 (centres undefined) | 1.3 | 2.1

More records follow.
SMILES | CBX7 inh | CBX7 inh z-score
O=C1CC(c2ccc(F)cc2)c2cc(Br)c3ccccc3c2N1 (centres undefined) | 1 | -0.013
O=C(NCCCN1CCOCC1)c1cc2n(n1)C(C(F)(F)F)CC(c1ccc(Cl)c(Cl)c1)N2 (centres undefined) | 1.2 | 2.5
Cc1c(NC(=O)c2ccc3c(=O)n4c(nc3c2)CCCCC4)cccc1[N+](=O)[O-] | 1.1 | 1.7
Cc1ccc(CNC(=O)CN(c2ccc(C)cc2)S(=O)(=O)c2cccnc2)cc1 | 0.86 | -2.2
CCOc1ccc(-c2nnc(NC(=O)c3cccc(C)c3)s2)cc1 | 1.3 | 0.58
COc1cc(-c2nc3sc4c(c3c(=O)[nH]2)CCCC4)cc(Cl)c1OCCOc1ccc(C)c(C)c1 | 1.1 | 1.5
COc1ccc(N2Cc3cccc(C(=O)Nc4ccccc4F)c3C2=O)cc1 | 0.77 | -5.6
CCN(CCCNc1nc2ccccc2c2nc(-c3ccccc3)nn12)c1cccc(C)c1 | 0.7 | -5.1
COCCn1c(=O)[nH]c2cc(C(=O)N3CCN(Cc4ccccc4)CC3)ccc2c1=O | 1 | 1.1
CCC(=O)Nc1ccc(S(=O)(=O)Nc2ncccn2)cc1 | 1 | 0.72
CC(CCc1ccccc1)NC(=O)CCCC1=NS(=O)(=O)c2ccccc2N1 (centres undefined) | 0.92 | -1.8
COc1ccc(-n2c(=O)cc(N3CCN(c4ccccc4F)CC3)[nH]c2=O)cc1 | 1 | 0.73
Cc1nc2c(C(=O)c3ccccc3)sc(Nc3ccccc3C)c2c(=O)[nH]1 | 1 | 0.21
CCOc1ccc(CNc2nc3ccccc3n2CCN2CCOCC2)cc1 | 1 | 0.3
O=C(CN1C(=O)COc2ccccc21)NC1CCCC1 | 1 | 0.45
CC(C)c1ccc(Cn2c(C3CC(=O)N(c4ccccc4)C3)nc3ccccc32)cc1 (centres undefined) | 0.83 | -2.4
COc1ccc(NC(=O)C(NS(=O)(=O)c2cccs2)C(C)C)cc1Cl (centres undefined) | 1.1 | 2
O=C(NCc1ccccn1)c1cc2ccccn2n1 | 0.9 | -1.9
CC(C)c1nc(N2CCCC2)c(C#N)c2c1CCCC2 | 1.1 | 3.2
CCCN(C(=O)Cc1c(C(=O)O)[nH]c2ccc(Cl)cc12)c1ccc(C(C)C)cc1 | 1.1 | 1.3

Three compounds already listed, arranged by the number in CBX7 inh z-score, descending:
smiles | CBX7 inh z-score
CCOC(=O)c1c(NC(=O)c2ccccc2)sc2c1CC(C)CC2 (centres undefined) | 1.7
CCOc1ccc(-c2nnc(NC(=O)c3cccc(C)c3)s2)cc1 | 0.58
CCN(CCCNc1nc2ccccc2c2nc(-c3ccccc3)nn12)c1cccc(C)c1 | -5.1

Remaining list, next part:
Below each compound – CBX7 inh	CBX7 inh z-score
- O=C1CSC(c2cccc(Cl)c2Cl)N1c1ccccc1 (centres undefined)
→ 1.1	3
- O=C(CCN1C(=O)COc2ccccc21)NCCN1CCCC1
→ 1	0.39
- COc1ccc(-c2noc(CCC(=O)Nc3cc(Cl)c(OC)cc3OC)n2)cc1
→ 0.94	-1.4
- COc1ccc(S(=O)(=O)N(CC(=O)Nc2cc(C)cc(C)c2)c2ccc(C)cc2)cc1
→ 0.99	-0.12
- CCCC1=Nc2cc(C(=O)NC3CCN(C(=O)OCC)CC3)ccc2Sc2ccc(C)cc21
→ 0.91	-4.3
- O=C(Nc1cccc(Cl)c1)C(Cc1ccccc1)NS(=O)(=O)c1cccc2cccnc12 (centres undefined)
→ 1.1	1.2
- CC(C)(C)n1cnc2cc(NCc3ccccc3Cl)ccc21
→ 0.4*	-17*
- CCOc1ccc(C2CC(=O)Nc3cc(OC)c(OC)cc32)cc1Cl (centres undefined)
→ 0.89	-1.4
- O=C(CSc1nnc(-c2cccc(F)c2)n1-c1ccccc1)Nc1ccc(Br)cc1
→ 1	0.23
- COC(=O)c1ccc(C2CC(=O)Nc3cc(OC)c(OC)cc32)cc1 (centres undefined)
→ 0.99	-0.21
- CCOc1ccc(-n2nc(C(=O)Nc3ccc(F)cc3F)c3ccccc3c2=O)cc1
→ 0.96	-0.65
- COc1cccc(C(=O)Nc2c3c(nn2-c2cccc(C)c2C)CSC3)c1
→ 1.1	0.96
- Cc1ccc(CNC(=O)C2CCN(S(=O)(=O)c3cccc4cccnc34)CC2)cc1
→ 1.1	1.5
- COc1ccc(-c2nc3ncccn3c2Nc2c(C)cccc2C)cc1
→ 0.93	-1.8
- Cc1ccccc1-c1nc(CN2CCC(C(=O)NC(C)C)CC2)c(C)o1
→ 1	-0.13
- Cc1ccc(CN2C(=O)N(c3ccccc3)C(=O)C2CC(=O)Nc2ccc(F)cc2)cc1 (centres undefined)
→ 1	0.17
- COc1ccc(CNC(=O)Cc2c(C(=O)O)[nH]c3ccccc23)cc1
→ 1	0.79
- COc1ccc(OCCCC(=O)Nc2nc3ccc(OC)cc3s2)cc1
→ 1.1	0.68
- O=C(CSc1nnc(C2COc3ccccc3O2)o1)N1CCOCC1 (centres undefined)
→ 1	-0.088
- CCOc1ccc2nc(N3CCC(C(=O)N4CCN(c5cc(C)ccc5C)CC4)CC3)sc2c1
→ 0.84	-4.4
- Cc1noc(C)c1S(=O)(=O)N(CC(=O)NC1CCCCC1)c1ccc(C(C)C)cc1
→ 0.78	-0.88
- CCN(CC)CCNC(=O)c1cc(Nc2ccc(OC)c(OC)c2)nc2ccccc12
→ 0.98	-0.24
- Fc1cccc(-c2nnc(-c3ccc(OCc4cccc(Br)c4)cc3)o2)c1
→ 1	-0.072
- CCn1c(=O)c(-c2ccc3ccccc3n2)cc2ccccc21
→ 1.4	2.2
- O=C(NCCCN1CCCCC1)c1cc(-c2ccncc2)nc2ccccc12
→ 1.1	1.4
- CCOCCCNC(=O)c1cnn2c(C)c(Cc3cccc(C)c3)c(C)nc12
→ 0.95	-0.5
- COCC(C)NC(=O)c1noc2c1CCc1cc(OC)ccc1-2 (centres undefined)
→ 1.1	0.91
- Cc1cc2cc(CNC(=O)c3ccc(S(=O)(=O)N4CCOCC4)cc3)ccc2n1C
→ 0.82	-2.9
- Cc1cc(C)nc(N=C2NC(=O)CC3C(=O)NCCN23)n1 (centres undefined)
→ 1	1.9
- Cc1ccc(Cl)cc1NS(=O)(=O)c1ccc2c(c1)CCC(=O)N2
→ 1	-0.062

(continued)
Below each compound – CBX7 inh	CBX7 inh z-score
- CCOc1ccccc1NC(=O)c1c(NC(=O)Cc2ccccc2)sc2c1CCC2
→ 1.1	3.1
- CCC(C)NC(=O)C1CCCN(S(=O)(=O)c2c(C)noc2/C=C/c2cccs2)C1 (centres undefined)
→ 1	0.055
- CC(=O)N1CCc2cc(S(=O)(=O)NC(CC(C)C)C(=O)N3CCCCCC3)ccc21 (centres undefined)
→ 0.86	-2.6
- CCOc1ccc(CCNC(=O)Cn2nc(-c3ccc(C)cc3)ccc2=O)cc1OCC
→ 0.96	-1.6
- CCOc1ccc(NC(=O)c2cc(-c3ccccc3)nc3ccccc23)cc1
→ 1.1	2.8
- O=C(CN1C(=O)CC(c2ccccc2)Sc2ccccc21)Nc1ccc(Cl)cc1 (centres undefined)
→ 1.1	1.7
- CC(=O)NCCc1nc2ccccc2n1CCCCOc1cccc(C)c1
→ 0.99	-0.5
- O=S1(=O)N=C(Nc2ccc(Cl)cc2)c2ccccc21
→ 1	0.76
- Cc1nc2c(-c3ccccc3)c(C)nn2c(C)c1CCC(=O)NCCN1CCCC1
→ 1.2	2.1
- COc1ccc(-c2csc(Nc3ccc(NC(C)=O)cc3)n2)cc1
→ 0.78	-0.26
- CCC1CCCCN1CCCNC(=O)Cn1nc(-c2ccc(C)cc2)ccc1=O (centres undefined)
→ 1	2
- O=C(NC1CCCCC1)c1nn2c(C(F)(F)F)cc(-c3cccs3)nc2c1Br
→ 1.2	2
- O=C(Nc1ccc(F)cc1)c1nc2c(nnn2Cc2cccc3ccccc23)c(=O)[nH]1
→ 0.86	-3.2
- COC(=O)c1c[nH]n2c(=O)c(Cc3ccc(C)cc3)c(C)nc12
→ 1.2	2.3
- O=C1c2ccccc2C(=O)N1c1ncc(Cc2cccc(C(F)(F)F)c2)s1
→ 1	0.15
- Clc1ccc(Cc2nc(-c3ccc(Cl)cc3)no2)cc1
→ 1.3	11
- CNc1oc(-c2ccc(OC)cc2)nc1S(=O)(=O)c1ccccc1
→ 1.1	0.35
- Cc1ccc(S(=O)(=O)C2(C(=O)N3CCN(c4ccccc4Cl)CC3)CC2)cc1
→ 0.87	-2.2
- Cc1cccc(-c2noc(COc3ccc(Br)cc3Cl)n2)c1
→ 2.3	23
- CC(C)(C)N1C(=O)c2ccc(C(=O)Nc3ccc(-c4nc5ccccc5[nH]4)cc3)cc2C1=O
→ 1.1	1.7
- CCOC(=O)N1CCC(NC(=O)c2cc3c(s2)CS(=O)(=O)C3)CC1
→ 0.93	-1.3
- CCOC(=O)c1oc2ccccc2c1NC(=O)C1CCCCC1
→ 1.1	1.9
- CCOC(=O)c1c(NC(=O)c2ccccc2C)sc2c1CCC2
→ 1.1	5.9
- COc1cc(NC(=O)c2ccccc2Cl)c2ncccc2c1
→ 1.1&1.1	2.5&1.7
- COc1cc2ccccc2cc1C(=O)Nc1nc2c(s1)CCCC2
→ 1	0.22
- Cc1ccccc1-c1nc(CS(=O)(=O)CC(=O)NCCCN(CC(C)C)CC(C)C)c(C)o1
→ 0.97	-0.62
- COc1ccc(-c2noc(COc3ccc(Br)c(C)c3)n2)cc1OC
→ 1	1.7
- Cc1ccc(N2CC(c3nc4ccccc4n3C)CC2=O)cc1Cl (centres undefined)
→ 0.81	-1.2
- Cc1cc(N2C(=O)Cn3cccc3C2C(=O)NC2CCC(C)CC2)ccc1Br (centres undefined)
→ 0.98	-0.46
- COc1cccc(-c2nn(C)c3sc(C(=O)Nc4ccccc4C)cc23)c1
→ 1.1	1.8

The final 6 entries of the part above are carried over, then new ones follow.
Below each compound – CBX7 inh	CBX7 inh z-score
- COc1cc2ccccc2cc1C(=O)Nc1nc2c(s1)CCCC2
→ 1	0.22
- Cc1ccccc1-c1nc(CS(=O)(=O)CC(=O)NCCCN(CC(C)C)CC(C)C)c(C)o1
→ 0.97	-0.62
- COc1ccc(-c2noc(COc3ccc(Br)c(C)c3)n2)cc1OC
→ 1	1.7
- Cc1ccc(N2CC(c3nc4ccccc4n3C)CC2=O)cc1Cl (centres undefined)
→ 0.81	-1.2
- Cc1cc(N2C(=O)Cn3cccc3C2C(=O)NC2CCC(C)CC2)ccc1Br (centres undefined)
→ 0.98	-0.46
- COc1cccc(-c2nn(C)c3sc(C(=O)Nc4ccccc4C)cc23)c1
→ 1.1	1.8
- Cc1onc(-c2ccccc2Cl)c1C(=O)Nc1ccc(OCC(=O)N2CCOCC2)cc1
→ 1&1	1.4&0.011
- CCn1cnc2cc(NCc3nc4ccccc4n3C)ccc21
→ 0.83	-1.4
- CCC(O)(CC)C12CC3CC(CC(C3)C1)C2
→ 0.94	-0.6
- O=C1CN(S(=O)(=O)CCOc2ccccc2)CC(=O)N1CCc1ccccc1
→ 0.99	-0.3
- O=C(Nc1cnn(Cc2ccc(F)cc2)c1)c1cc(-c2ccc(F)cc2)on1
→ 1	0.012
- C=CCNC(=O)C1CC(=O)N(c2ccc(OCC(=O)Nc3ccc(F)cc3)cc2)C1 (centres undefined)
→ 0.89	-2
- COc1ccc(C2CC(c3nc4ccccc4s3)=Nc3ccccc3S2)cc1 (centres undefined)
→ 0.97	-0.5
- CCOC(=O)c1cc(-c2ccccc2)n(CCC(=O)Nc2cc(C)ccc2OC)c1C
→ 1.1	1.2
- Clc1ccc(-c2csc(N3CCN(Cc4ccccc4Cl)CC3)n2)cc1
→ 1	-0.0038
- Cc1nc2ccc(S(=O)(=O)N(C)CC(=O)Nc3ccc(Br)c(C)c3)cc2s1
→ 1.2	1.4
- CCOC(=O)N1CCC(NC(=O)C2CCCN(C(=O)c3cc4sccc4n3C)C2)CC1 (centres undefined)
→ 0.98	-0.65

A portion of the library. The share of hits here may be higher or lower than overall.
